# Bead autofluor: flagged as autofluorescent in microsphere protease counterscreen; compound autofluorescence counterscreen, microsphere flow cytometry; stronger effect = higher value; fluorescence intensity (concentration not given with the values); actives 3.1% (n = 360,000); AID 624483;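 active = at least 3 SD above the mean of all compounds, about 16000 in these data; inconclusive = too few beads counted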;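 note: 100 nL of 1 mM stock went into each well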
# RN4220 kill: kills Staphylococcus aureus RN4220. S. aureus RN4220 growth, OD600, 16 h. inhibition, % (concentration not given with the values). actives 0.33% (n = 330,000);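 active = z-score of -3 or lower and OD600 up to 0.18 on both plates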;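 note: plate controls were untreated cells for no effect and reference antibiotic for full effect; stock transfer was 100 nL into about 80 µL; one replicate is shown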
# Mtb hypoxia inh: reduces hypoxia-regulated biosensor signal in M. tuberculosis | M. tuberculosis hypoxia-regulated fluorescent reporter, fluorescence | fluorescence inhibition, % (no concentration beside the values) | actives 0.1% (n = 300,000) | AID 1159583;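 active = 35 to 45% if threefold the growth effect, above 45% if 1.5-fold the growth effect; inactive = the rest, general growth blockers included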;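 note: wells of about 50 µL received 100 nL stock; 0% = vehicle wells and 100% = reference inhibitor wells; whole bacteria with a GFP reporter of the hypoxia response; strong numbers were not always called active; many hits fall short of the cut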
# Sa ugtP lethal: growth inhibition of S. aureus ugtP deletion strain. S. aureus RN4220 ugtP deletion, OD600 growth, 16 h; some inactives read as strong as hits. growth inhibition, % (test concentration not listed). actives 0.54% (n = 330,000). AID 1259309;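 active = z-score under -3 and OD600 up to 0.15 on both plates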;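 note: plate controls were untreated wells for no effect and antibiotic for full effect; wells of about 80 µL received 100 nL stock; the first replicate is given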
# PrP UTR inh: inhibition of PrP 5' UTR reporter expression; actives 0.35% (n = 340,000); cell-based PrP 5' UTR mRNA reporter, plate reader; inhibition, % (concentration not given with the values);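 active = every replicate at 50% or more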;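 note: 0 = median of the neutral control wells; tested in H4 reporter cells; numbers are from one replicate; inactives centre near -14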
# BJeLR viability: BJeLR cell viability loss. BJeLR (HRASV12) viability, CellTiter-Glo ATP luminescence, 48 h; reference of the scale not given here. inhibition, % (no concentration beside the values). actives 0.17% (n = 300,000). AID 1554;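 active = replicate mean above 50%; inconclusive = above 50% but judged a plate artefact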;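 note: 50 nL library stock added to about 25 µL; numbers are from one replicate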
# Mtb hypoxia inh growth: second read-out of Mtb hypoxia inh, no call of its own (marks repeat the call); growth inhibition, %; measured here: M. tuberculosis growth (absorbance);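 0% = vehicle and 100% = reference antibiotic; read after six days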
# Active calls of the source: *; ? = inconclusive; · = not tested or not shown; & = joins results of further samples.
Compound,BJeLR viability,Mtb hypoxia inh growth,Mtb hypoxia inh,PrP UTR inh,Bead autofluor,RN4220 kill,Sa ugtP lethal
COc1ccc(-c2nn(-c3ccccc3)cc2C(=O)Nc2cccc(C(=O)O)c2)cc1[N+](=O)[O-],-5,3,6,-16,3804,4.6,2
COc1ccc(CCN2C(=O)C3C(C2=O)C2C=CC3C23CC3)cc1OC (stereo unspecified),4,11,1,-20,5187,2.8,8
COc1cccc(C2C(C(N)=O)=C(C)Nc3nc(CCCO)nn32)c1 (stereo unspecified),-3,-10,1,-16,2995,-2.1,5
CCn1cc(CN(C)S(=O)(=O)c2ccc3ccccc3c2)c(C)n1,6,14,-10,-1,2455,2.4,1
Cc1nc(NC2=NCN(Cc3cccnc3)CN2)nc2ccccc12,·,3,3,-27,?,3.8,-6
CCS(=O)(=O)N1CCC(C(=O)Nc2ccc(C(C)=O)cc2)CC1,1,6,-4,-11,4144,-0.4,6
O=S(=O)(Nc1ccon1)c1ccc(Br)s1,-12,-15,-13,-10,6744,4.8,11
O=C(c1ccco1)N1CCCC(c2nc(-c3ccc(S(=O)(=O)NCc4ccccc4)cc3)no2)C1 (stereo unspecified),-11,2,11,4,22212*,16,-4
O=C(O)c1ccc(Cl)c(NC(=S)NC(=O)c2ccccc2[N+](=O)[O-])c1,7,9,12,-6,4368,5.6,9
COc1ccc(N(C)C(=O)CN(C)S(=O)(=O)c2ccc3c(c2)c(=O)n(C)c(=O)n3C)c(OC)c1,12,-1,8,1,5987,1.1,8
N#Cc1cc(-c2ccccc2)cn(Cc2c(Cl)cccc2Cl)c1=O,-2,10,8,-17,9974,0.9,-7
CCCCCn1c(CN2CCN(Cc3ccccc3)CC2)nc2c1c(=O)[nH]c(=O)n2C,-3,7,1,4,22888*,2.5,1
C=CCN1C=C2C(=O)C(C)(OC(=O)C3CCCC3)C(=O)C(c3ccccc3)=C2C=C1CCCC(=O)OC (stereo unspecified),4,-8,-1,10,4162,8.6,7
Cc1ccc(S(=O)(=O)N2CCOCC2)cc1NC(=O)c1ccc(F)cc1F,·,3,3,0,3653,3.4,5
CNCCc1ccc(OC)c(OC)c1,4,·,·,-12,5719,2.3,-10
O=C(CSc1nc(=O)n(CCN2CCOCC2)c2c1CCCC2)Nc1cccc([N+](=O)[O-])c1,9,12,2,-21,5518,-2.3,3
Nc1nonc1-n1nnc(C(=O)N/N=C/c2ccccc2Cl)c1-c1ccc2c(c1)OCO2,-1,·,·,3,5251,·,·
Cc1noc(COc2ccccc2OCC(N)=O)c1Cl,2,11,-2,-18,2906,2.9,-5
O=[N+]([O-])c1ccc(OP(=O)(O)Oc2ccc([N+](=O)[O-])cc2)cc1,·,9,9,-10,4049,0.7,0
COc1cc(NC(=O)C2CC3CCC2C3)c(OC)cc1Cl (stereo unspecified),-6,7,0,3,3301,2.6,2
O=C(COc1cccc2c1CCNC2=O)Nc1cccc(F)c1,5,9,7,4,4231,2.6,7
CCc1nc2cc(CC(=O)O)ccc2o1,4,7,15,-7,3288,4.3,9
CC(C)(C)OC(=O)C[C@H]1C/C=C\C[C@@H](CC(=O)NCCO)C(=O)N[C@H](C(C)(C)C)COC1=O,·,6,2,-64,3377,1.3,7
CC12CN(C(=O)c3ccco3)CC(c3ccccc3)(CN(C(=O)c3ccco3)C1)C2=O,-2,·,·,-10,4598,4.5,2
CC(C)c1nc(CNC(=O)CC2C(=O)NCCN2Cc2ccc(F)cc2Cl)cs1 (stereo unspecified),0,-5,5,-28,6494,3.9,0
CN1/C(=C\C=C2/C(=O)Oc3ccccc3C2=O)C(C)(C)c2ccccc21,-20,-6,-4,·,·,2.1,-8
ON=C1/C(=C\c2ccccc2)N2CCC1CC2,·,7,7,·,·,11,-4
CC1(c2ccccc2)NC(=O)N(CC(=O)N2CCOCC2)C1=O (stereo unspecified),-16,2,6,1,11302,3.4,5
CSc1sc(C(=O)NC(=O)NCc2ccncc2)c(C)c1-c1ccon1,-4,11,11,2,6172,2.3,0
CCOc1ccc(N2CC(C(=O)N3CC(C)OC(C)C3)CC2=O)cc1 (stereo unspecified),15,6,10,-7,2965,-0.6,11

# An excerpt from above in order of SMILES length, low to high.
Compound,BJeLR viability,Mtb hypoxia inh growth,Mtb hypoxia inh,PrP UTR inh,Bead autofluor,RN4220 kill,Sa ugtP lethal
CCS(=O)(=O)N1CCC(C(=O)Nc2ccc(C(C)=O)cc2)CC1,1,6,-4,-11,4144,-0.4,6
Cc1ccc(S(=O)(=O)N2CCOCC2)cc1NC(=O)c1ccc(F)cc1F,·,3,3,0,3653,3.4,5
C=CCN1C=C2C(=O)C(C)(OC(=O)C3CCCC3)C(=O)C(c3ccccc3)=C2C=C1CCCC(=O)OC (stereo unspecified),4,-8,-1,10,4162,8.6,7

# The main list resumes, repeating the 2 entries before the break.
Compound,BJeLR viability,Mtb hypoxia inh growth,Mtb hypoxia inh,PrP UTR inh,Bead autofluor,RN4220 kill,Sa ugtP lethal
CSc1sc(C(=O)NC(=O)NCc2ccncc2)c(C)c1-c1ccon1,-4,11,11,2,6172,2.3,0
CCOc1ccc(N2CC(C(=O)N3CC(C)OC(C)C3)CC2=O)cc1 (stereo unspecified),15,6,10,-7,2965,-0.6,11
O=c1c2c(-c3cccs3)csc2ncn1-c1ccccc1,-2,7,5,2,2827,-1.2,-9
Cc1ccn(-c2ccc([N+](=O)[O-])cc2)n1,-4,-3,6,-38,20585*,10,10
C=CCC(CC(=O)OC(C)(C)C)C(=O)OCC1CCCN1C(=O)C(CC=C)CC(=O)NC(CO)Cc1ccccc1 (stereo unspecified),·,7&5&7&9,4&17&20&8,·,·,7.9&9.4&6.8&6.3,9&2&8&-11
CCCCCc1nc(-c2nonc2N)no1,-15,-1,1,-8,3362,4.2,2
CCNC(=S)NNC(=O)c1cc(-c2ccc(OC)cc2)nc2ccccc12,50,4,9,-26,2503,4.6,1
CCOC(=O)c1cc2c(ccn2C)n1CC(=O)Nc1ccc(F)cc1,3,7,17,-1,3210,1.9,8
COc1cc(OC)c(S(=O)(=O)NCc2cccnc2)cc1NC(C)=O,-5,0,9,-15,4814,0.4,3
CC(C)CN(C(=O)c1cccc(S(=O)(=O)N2CCN(c3ccc(F)cc3)CC2)c1)C1CCS(=O)(=O)C1 (stereo unspecified),-3,1,-7,-6,5877,1.7,5
Cc1cc(C)n(CC(=O)NN)n1,4,-6,4,-27,4225,0.8,1
COC(=O)c1cn(C)c2ccc(S(=O)(=O)N3CC(C)CC(C)C3)cc2c1=O (stereo unspecified),-2,6,10,-10,11344,1.3,7
COCCNC(=O)C1CC(=O)N(c2ccc(OC)cc2)C1c1ccc(OC)cc1 (stereo unspecified),5,6,-10,-5,3235,6.1,3
CCCCNCc1cc(OCC)c(OCC)cc1Br,-2,0,14,-21,4093,-1.1,-1
COc1ccc(Cl)cc1NC(=S)NCCCN1CCCC1=O,4,2,9,-15,4238,3.8,12
CN1/C(=C\C(=S)Nc2ccccc2)C(C)(C)c2ccccc21,2,-1,-7,-18,3012,0.3,3
Cc1ccccc1-n1c(=O)cc(N2CCCCCC2)[nH]c1=O,-1,5,10,2,6301,5.1,2
CC(O)CSc1nc2c(c(=O)[nH]c(=O)n2C)n1Cc1ccccc1Cl (stereo unspecified),-1,0,1,-58,4792,2.3,5
O=C(c1ccc(C(=O)N2CCOCC2)nc1)N1CCOCC1,-2,2,5,-24,9271,6.2,-6
CC(=O)N1CCN(S(=O)(=O)c2cccc(C(=O)NC3CCCC3)c2)CC1,·,-1,-7,-10,3949,1.7,1
COCCn1c(C)cc(C(=O)COC(=O)c2ccc3ncsc3c2)c1C,-8,13,18,-92,3112,4.4,-4
CCOC(=O)N1CCN(S(=O)(=O)c2ccc(C(=O)Nc3ccc(F)cc3F)cc2)CC1,-1,2,6,-48,9928,-3.7,7
C[C@H](CO)N1C[C@H](C)[C@@H](CN(C)S(=O)(=O)c2cn(C)cn2)Oc2c(NS(=O)(=O)c3cccs3)cccc2C1=O,·,4,3,-17,2887,6.0,19
CN(Cc1cnn(C)c1)C(=O)c1cc(COc2c(F)cccc2F)on1,-5,-4,6,-34,4396,7.3,2
CNC(=O)COC(=O)c1cc(-c2ccc(OC)cc2)nc2ccccc12,-3,5,5,-13,3317,5.0,4
Cn1c(Cl)cnc1C(O)c1ccccc1 (stereo unspecified),-3,2,5,4,11063,3.3,-4
Clc1ccc2nc(-c3ccc(Br)s3)cn2c1,0,6,5,-2,5859,14,1
COc1ccc(C2CC2C(C)=NOC(=O)c2ccc(F)cc2)cc1 (stereo unspecified),·,7,5,·,·,3.5,34
COc1cc(C#N)c(N=C(SCC#N)N2CCOCC2)cc1OC,4,3,10,-13,3143,1.9,5
CC1Cc2ccccc2N1C(=O)CN1C(=O)CN(C)C(=O)c2ccccc21 (stereo unspecified),-16,·,·,-24,3046,-0.8,1
COc1ccc(-c2ccc(C#N)c(OC)n2)cc1,4,3,5,-17,3778,15,0
Cc1nonc1CC(=O)NC1CC(C)(C)Cc2c1cnn2-c1ccc(F)cc1 (stereo unspecified),-3,11,6,-15,5529,3.5,6
CC(C)Oc1ccc(C(=O)NCC(=O)OCC(=O)N(C)Cc2cccs2)cc1,2,6,4,-19,4163,1.6,4
CNC(=O)CSc1nc2cc(S(=O)(=O)Nc3ccccc3OC)ccc2o1,-8,8,-10,-10,3936,2.1,-2
CC1C/C(=C\c2ccccc2[N+](=O)[O-])c2nc3ccccc3c(C(=O)O)c2C1 (stereo unspecified),-4,2,6,-20,3540,3.8,15
NC(=O)C1CCN(C(=S)NC2CC3C=CC2C3)CC1 (stereo unspecified),-3,-11,1,-58,4306,-2.7,-4
Nc1ccccc1SCC(=O)Nc1nc(-c2ccccc2)cs1,-3,15,1,-32,4092,0.4,4
COc1cccc(NC(=S)N2CCCN(Cc3ccc(F)cc3)C2)c1,-1,-4,15,0,3366,1.5,14
COc1ccc(-n2c(C)cc(/C=C(\C#N)C(=O)NCc3ccco3)c2C)cc1,-5,12,17,-25,9192,1.1,2
COc1ccc(N2CCN(C(=O)c3ccc4ccccc4n3)CC2)cc1,-3,10,15,-9,2535,-1.0,6
CCOC(=O)c1c(C)nc(C)c2c(=O)oc3ccccc3c12,1,10,-2,-16,4318,10.0,6
O=C(Nc1ccc(F)c(F)c1)C1CCCN(S(=O)(=O)c2cccc3nonc23)C1 (stereo unspecified),-9,-6,-2,17,3149,2.1,7
CCOC(=O)c1cc2occc2n1CCCN1C(=O)c2ccccc2C1=O,-1,10,-1,-4,7891,5.2,-6
CCn1c(CCNC(=O)c2cccs2)nnc1SCC(=O)Nc1nc(-c2ccccc2)cs1,9,13,3,-19,9595,-2.9,-10
COc1ccccc1-n1c(/C=C/c2ccc(O)cc2)nc2ccccc2c1=O,-5,3,-8,-21,4291,-1.6,14
COc1ccc(OC)c(C(=O)COC(=O)CN2C(=O)NC3(CCCCC3C)C2=O)c1 (stereo unspecified),3,0,13,-6,?,1.2,5
CN(Cc1ccco1)c1ncnc2ccc(-c3ccccc3Cl)cc12,·,19,6,1,2921,0.8,9
O=C(CNC(=O)c1ccc2ccccc2c1)OCC(=O)N1CCN(S(=O)(=O)c2ccc3ccccc3c2)CC1,-3,0,4,-26,2125,-1.7,-8
COC(=O)c1cc(OC)c(OC)cc1NC(=S)N1CCC(C(N)=O)CC1,4,-3,-9,-23,17588*,0.9,-1
COc1ccc(-n2c(=O)c(CCC(=O)N(C)Cc3ccccc3C)nc3ccccc32)cc1,-2,4,10,-59,4545,-0.2,-15
O=C1C2C3C=CC(C3)C2C(=O)N1c1n[nH]c(-c2ccccc2)n1 (stereo unspecified),0,-2,12,-19,23080*,9.2,3
Cc1ccc(OC(=O)CCNC(=O)c2ccccc2Cl)c(Br)c1,7,0,6,-4,?,4.9,3
Cc1cc(=O)[nH]c(N)n1,-23,4,2,-21,4744,3.2,6
COc1ccccc1NC(=O)N1CCCC1,-1,3,10,-6,1959,3.3,1

# Assay outcomes: PubChem BioAssay, several laboratories
